Bioassay records deposited in PubChem by several laboratories.
WNV NS2B-NS3 inh: blocks West Nile virus NS2B-NS3 protease activity. P06935. WNV NS2B-NS3 protease, fluorogenic substrate Ex360/Em465; hits give low values. z-score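 (tested at a level between 10 and 100 µM)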. 0.18% of 65,000 active. AID 577;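 active = z-score at -3 or under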;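 also: score is relative to mean and spread of the compound wells of a plate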
Target sequence (P06935 1371-1501 limits assumed): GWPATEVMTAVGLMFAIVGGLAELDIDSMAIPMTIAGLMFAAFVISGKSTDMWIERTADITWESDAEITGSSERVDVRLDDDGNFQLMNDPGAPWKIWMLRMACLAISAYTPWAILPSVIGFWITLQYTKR
Target sequence (P06935 1502-1679 limits assumed): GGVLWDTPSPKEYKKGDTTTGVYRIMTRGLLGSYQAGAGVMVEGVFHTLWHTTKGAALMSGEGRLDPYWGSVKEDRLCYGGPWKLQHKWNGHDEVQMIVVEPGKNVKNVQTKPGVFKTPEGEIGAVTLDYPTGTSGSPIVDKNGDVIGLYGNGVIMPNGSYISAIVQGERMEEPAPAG
Hsc70 ATP site: Hsc70 inhibitors, probe displacement, primary screen, biochemical, fluorescence polarization (AID 568); Hsc70 fluorescence polarization, probe displacement; higher % means a stronger effect; strong numbers were not always called active; one-dose displacement, % at 20 µM; IC50 in µM for titrated hits; 83,000 tested, under 10 active;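 active = displacement above 50% without optical interference and an IC50 on retest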;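 also: ATPase domain with a fluorescein-tagged ATP probe; 0% = vehicle and 100% = excess ADP; read after one hour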
MT1-MMP reporter: inhibitors of MT1-MMP promoter transcription, cell-based, luciferase reporter, luminescence (AID 618) | 0.62% of 87,000 active | MT1-MMP promoter luciferase reporter cells, luminescence | calls from a first round at 10 µM; hits with a dose series show EC50 in µM;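 active = over half of the reporter light lost at 10 µM or EC50 under 50 µM; inactive = the rest and hits that failed the dose series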;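 also: actives suppress MT1-MMP promoter-driven transcription so potencies describe inhibitors; HT1080 fibrosarcoma cells; overnight exposure; toxic or luciferase-blocking compounds were not removed from the actives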
An asterisk follows results filed as active; i = inactive; nt = no result given.

No.	canonical_smiles	WNV NS2B-NS3 inh	Hsc70 ATP site	MT1-MMP reporter
1	CCCC1(C(=O)OC)NC(c2ccc(OC)c(OC)c2)C2C(=O)N(c3ccc4c(c3)OCO4)C(=O)C21 (stereo unspecified)	0.68	0.8%	i
2	CN(C(=O)COC(=O)COc1ccccc1F)C1CCS(=O)(=O)C1 (stereo unspecified)	-0.56	-5.3%	i
3	COc1ccc2c(C)cc(SCC(=O)Nc3c(C)n(C)n(-c4ccccc4)c3=O)nc2c1	nt	0.6%	i
4	O=C(Cn1nnc(-c2ccccc2)n1)OC1CCOC1=O (stereo unspecified)	1.08	-5.6%	i
5	Cc1cccc(N2CSC3=C(C#N)C(c4ccc(C)o4)CC(=O)N3C2)c1 (stereo unspecified)	-0.15	-7.9%	i
6	CCCCCc1c(C)nc(N2CCc3ccccc3C2)[nH]c1=O	-2.06	-1.9%	i
7	COc1ccc(OC)c(-n2nnnc2SCC(=O)Nc2nc(C)c(C)s2)c1	0.19	-1.1%	i
8	CNC(=O)N1CCN(C(=O)NC)CC1	nt	1.6%	i
9	CCn1cc(C(=O)NCc2ccc3c(c2)OCO3)c(=O)c2ccc(C)nc21	-0.61	2.2%	i
10	O=C(NC1CCCCC1)N1CCN(CCc2ccccc2)CC1	0.03	3.9%	i
11	N#CCCN1CCN(C(=S)c2ccc(-c3ccc(Cl)c(Cl)c3)o2)CC1	0.72	-8.7%	i
12	Cn1c(/N=C/c2c[nH]c3ccccc23)nc2ccccc21	-1.2	-5.5%	i
13	COc1ccc(C2C(C#N)=C(N)Oc3cc4c(cc32)OCO4)cc1 (stereo unspecified)	-0.42	-6.2%	i
14	Cn1c(=O)c(C(=O)Nc2cccnc2)c(O)c2ccccc21	-0.4	-86.5%	i
15	CCN(CC)C(=O)Nc1ccc(C(=O)OC)cc1	nt	-6.4%	i
16	CC(C)COC(=O)C(C#N)c1nc2ccccc2nc1N1CCN(Cc2ccccc2)CC1 (stereo unspecified)	0.82	-26.0%	i
17	O=C(NC1CCCCC1)C(c1ccco1)N(C(=O)c1csnn1)C1CCCC1 (stereo unspecified)	0.22	-3.6%	i
18	c1ccc2c(c1)CCCN2c1nc2ccccc2n2cnnc12	0.39	-0.1%	i
19	Cc1cc(NC(=O)CCC(=O)N(c2ccccc2)C(C(=O)NC2CCCC2)c2ccccc2)no1 (stereo unspecified)	nt	2.3%	i
20	COc1ccc(N2CCN(C(=O)CN(Cc3ccccc3)S(C)(=O)=O)CC2)cc1	nt	2.8%	i
21	COc1cccc(NC(=O)CCCn2c(=S)[nH]c3ccccc3c2=O)c1	nt	-0.8%	i
22	O=C1Nc2cc(C(=O)N3CCOCC3)ccc2SC1N1CCOCC1 (stereo unspecified)	-0.74	-0.1%	i
23	COc1ccccc1C(=O)OCCN1CCOCC1	nt	-4.2%	i
24	CC(=O)Nc1ccc(C(=O)c2ccccc2)cc1	-0.82	-4.3%	i
25	Cn1c(=S)n(/N=C/c2ccc3c(c2)OCO3)c2ccccc21	1.68	-2.0%	i

Additional compounds.
No.	canonical_smiles	WNV NS2B-NS3 inh	Hsc70 ATP site	MT1-MMP reporter
26	CCCc1cc(C(=O)NCc2ccccc2)no1	1.16	2.4%	i
27	O=C(CSc1nnc(COc2cccc3cccnc23)o1)N1CCc2ccccc21	0.29	-2.1%	i
28	O=C(CCCN1C(=O)c2cccnc2C1=O)N1CC(=O)N(CCc2ccccc2)C(=O)C1	-0.3	3.2%	i
29	C=CCn1c(-c2ccc(N)cc2)nc2ccccc21	-1.29	6.6%	i
30	Cc1c(Cl)cccc1NC(=O)Cn1cccc1	-0.99	-2.5%	i
31	Cc1cc(N2CCOCC2)nc2cc(O)ccc12	0.04	0.4%	i
32	Cc1cc2c(c(SCC(=O)NCCc3ccccc3)n1)C(=O)OC2	nt	-2.8%	i
33	C=CC(O)(C#CCN(CC)CC)c1ccccc1 (stereo unspecified)	-0.00419	-0.1%	i
34	Cc1c(Cc2ccccc2)sc(N)c1C(N)=O	-0.01	-3.8%	i
35	CNC(=O)CCn1nc(-c2ccccc2)c2ccccc2c1=O	-0.35	-3.1%	i
36	O=C(c1ccco1)N(Cc1nc2ccccc2c(=O)[nH]1)C1CCCC1	-1.19	-5.1%	i
37	O=c1c2ccccc2nc2n1CCC2	-2.63	-2.6%	i
38	Cc1nc(-c2cccc(S(=O)(=O)N3CCOCC3)c2)cs1	-0.63	0.9%	i
39	Cc1ccccc1CN(c1ccc(C(N)=O)cc1)S(C)(=O)=O	0.21	1.9%	i
40	Cc1nc2c(C(=O)NCc3ccco3)cnn2c(C)c1Cc1ccc(F)cc1Cl	-0.06	0.3%	i
41	Cc1ccc(-c2nnc(-c3cccc(Br)c3)o2)cc1	0.03	-5.9%	i
42	COC(=O)NCC(c1cccnc1)N1CCN(c2ccccc2OC)CC1 (stereo unspecified)	0.14	-1.8%	i
43	COc1ccc(Cl)cc1S(=O)(=O)n1nnc2ccccc21	-0.18	-5.6%	i
44	COCCNC(=O)CCCn1c(=O)c2ccccc2n(CC(=O)NCCC2=CCCCC2)c1=O	-1.18	-7.6%	i
45	Cc1nc(SCc2ccccc2C)n[nH]1	1.6	-1.2%	i
46	Cc1noc(C)c1C(=O)OCC(=O)NCCC1=CCCCC1	0.66	-0.1%	i
47	CCCCc1c(C)nc(N)[nH]c1=O	0.5	-4.0%	i
48	COc1cccc2cc(C(=O)N3CCCCC3C)c(=O)oc12 (stereo unspecified)	nt	1.3%	i
49	Cn1c(CN2CCCCC2)nc2cc(NC(=O)c3cccs3)ccc21	0.87	1.2%	i
50	CC(C)n1c(SCC(=O)NCc2ccco2)nc2c1c(=O)n(C)c(=O)n2C	-0.05	3.1%	i

Further records.
No.	canonical_smiles	WNV NS2B-NS3 inh	Hsc70 ATP site	MT1-MMP reporter
51	Cc1nn(Cc2ccc(C(=O)Nc3nccs3)cc2)c(C)c1Cl	2.24	-4.6%	i
52	CCOC(=O)c1cnn2c(C)cc(-c3ccc(F)cc3)nc12	0.58	-0.3%	i
53	O=C(NCCCN1CCN(CCCNC(=O)c2ccc3c(c2)OCO3)CC1)c1ccc2c(c1)OCO2	-0.61	-2.0%	i
54	O/N=C(\c1ccc2c(c1)OCCO2)C1CCCCC1	0.89	0.0%	i
55	CC(C)n1c(=S)[nH]c2ccccc2c1=O	nt	4.6%	i
56	O=c1[nH]c(-c2cccs2)nc2ccccc12	0.00653	1.6%	i
57	CN1CCN(CCC(=O)N2c3ccccc3Sc3ccc(Cl)cc32)CC1	0.46	-0.3%	i
58	C=CCn1c(SCC(=O)c2cc(C)n(CC3CCCO3)c2C)nnc1-c1ccccc1 (stereo unspecified)	0.59	5.7%	i
59	COc1ccccc1NC(=O)Cn1cnc2c1c(=O)n(C)c(=O)n2C	-0.33	-4.4%	i
60	COCc1cc(C)nc(N2CCCCC2)c1C#N	nt	1.3%	i
61	CCCCOC(=O)c1ccc(NC(=O)C(CCS(C)(=O)=O)NC(C)=O)cc1 (stereo unspecified)	0.88	2.2%	i
62	CCN(CC)S(=O)(=O)c1cccc(-c2nnc(C(=O)c3ccc(C(F)(F)F)cc3)o2)c1	0.06	1.8%	i
63	O=C(Nc1nccs1)C12CC3CC(C1)CC(C(=O)Nc1nccs1)(C3)C2	-1.11	21.7%	i
64	COc1ccc(CCNc2oc(-c3ccc(OC)c(OC)c3)nc2C#N)cc1	0.41	-2.1%	i
65	CCOCCOC(=O)C1=C(C)N(C)C(=O)NC1c1cc(Cl)c(O)c(OCC)c1 (stereo unspecified)	-0.1	1.9%	i
66	O=C(Nc1ccccc1)N1CCn2c(nc3ccccc32)C1	-0.09	-1.8%	i
67	Nc1nc(-c2ccc3c(c2)OCCO3)cs1	-0.19	-0.2%	i
68	Cn1nnnc1SCC(=O)Nc1ccc(Oc2ccccc2)cc1	0.43	-0.5%	i
69	COC(=O)CSc1nnc(CNC(=O)c2cccc(C)c2)n1-c1ccccc1OC	-0.33	-5.0%	i
70	Cc1cccc(NC(=O)c2cc3c(n(-c4ccccc4)c2=O)CCCC3=O)n1	-0.87	0.1%	i
71	Cn1c(=O)c2c(nc(CN3CCN(c4ccccc4)CC3)n2CCN2CCOCC2)n(C)c1=O	-0.34	-1.6%	i
72	Cc1ccc(C(=O)N2CCN(C3CCCCC3)CC2)s1	-0.67	-0.7%	i
73	O=C(CN1C(=O)C2CCCCN2C(=O)c2ccccc21)N1CCCc2ccccc21 (stereo unspecified)	-0.35	6.3%	i
74	c1ccc(N=P(N2CCOCC2)(N2CCOCC2)N2CCOCC2)cc1	-0.43	5.6%	i
75	CN1C(=O)c2ccccc2C(C(=O)O)C1c1cccc(Cl)c1 (stereo unspecified)	nt	1.5%	i

Next records
No.	canonical_smiles	WNV NS2B-NS3 inh	Hsc70 ATP site	MT1-MMP reporter
76	Cc1csc(NC(=O)c2cccc(Cn3nc(C)c(Br)c3C)c2)n1	1.07	-1.1%	i
77	CCCCCN1CC(O)=C(c2ccccc2)C1=N	nt	-1.3%	i
78	CC(C)n1cc(NC(=O)c2cc(-c3ccccc3)on2)cn1	nt	2.4%	i
79	O=C(c1n[nH]c(=O)c2ccccc12)N1CCN(c2ccccc2)CC1	0.51	-4.8%	i
80	CCOc1ccccc1CNC(=O)C1CCN(c2nc3ccccc3o2)CC1	1.07	-3.2%	i
81	CCO/C=C/C(O)(CNC(=O)COc1ccccc1F)C(F)(F)F (stereo unspecified)	-1.21	3.6%	i
82	Cc1ccc(S(=O)(=O)NCCSC(C)(C)C)cc1	nt	-1.8%	i
83	CN1CCN(CCCC(=O)c2ccc(F)cc2)CC1	-0.12	5.0%	i
84	COc1cccc(Nc2ncc(C(=O)O)c3ccccc23)c1	0.21	-1.4%	i
85	O=C(CSCc1ccco1)c1cccs1	-0.02	8.6%	i
86	CCC(=O)n1nc(-c2ccco2)nc1N	-1.55	4.9%	i
87	O=C(Nc1cccc(F)c1)C1CC(=O)N(c2ccc(Br)cc2)C1 (stereo unspecified)	-0.75	-2.7%	i
88	CCCCN(C)CCNC(=O)Cn1ncc2c(=O)oc3ccc(C)cc3c21	-0.75	0.0%	i
89	COC(=O)c1cc2ccsc2n1CC(=O)Nc1cc(Cl)ccc1OC	0.05	-3.6%	i
90	Cc1ccc(NC(=O)N2CCCC2C(=O)Nc2ccc(-n3cnnn3)c(C)c2)cc1 (stereo unspecified)	nt	-0.5%	i
91	CCCCNC(=O)CNC(=O)c1cccs1	nt	-2.2%	i
92	Cc1ccccc1CN1CCN(CC(=O)NCc2ccco2)C1=O	-1.06	0.8%	i
93	O=C(CSc1nnc(-c2cccs2)n1-c1ccccc1)NCc1ccco1	-0.09	4.2%	i
94	CCC(=O)c1ccccc1OCCCN1C(=O)NC(C)(C)C1=O	-0.32	7.0%	i
95	O=C(c1ccccc1)N1CCCCC(S(=O)(=O)c2ccccc2)C1=O (stereo unspecified)	0.94	0.5%	i
96	COC(=O)c1ccccc1NC(=O)NCC1CCCO1 (stereo unspecified)	-0.52	2.0%	i
97	Cc1cc(NCCCN2CCOCC2)n2nc(C)c(-c3ccccc3)c2n1	0.53	-1.6%	i
98	Cc1ncc(CSc2nnnn2-c2ccccc2)c(N)n1	-1.27	-3.8%	i
99	CCOCCn1c(CN(Cc2ccccc2)Cc2ccccc2)nc2c1c(=O)[nH]c(=O)n2C	-1.2	-3.2%	i
100	O=C1C2C3C=CC(C3)C2C(=O)N1c1ccc2c(c1)OCO2 (stereo unspecified)	-1.25	-8.4%	i

Remaining list, next part:
No.	canonical_smiles	WNV NS2B-NS3 inh	Hsc70 ATP site	MT1-MMP reporter
101	O=C(NCc1ccccc1)N[C@@H](Cc1c[nH]c2ccccc12)C(=O)O	-0.28	-2.1%	i
102	CCNc1nc(NC(C)C)nc(Oc2ccc(/C=N/O)cc2)n1	nt	2.2%	i
103	CCCC(CCC(=O)Nc1ccc(C(=O)OC)cc1)C(=O)O (stereo unspecified)	-0.07	-1.1%	i
104	Cc1nc2ccccc2n1CC(O)Cn1c(C(F)(F)F)nc2ccccc21 (stereo unspecified)	-0.39	-4.0%	i
105	CCOc1ccc(C(=O)OCCN(C)C)cc1	nt	-8.1%	i
106	CSCCC(C(=O)Nc1ccc2c(c1)OCO2)N1C(=O)c2ccccc2C1=O (stereo unspecified)	-0.54	-0.3%	i
107	CCN1CCN(CCCNC(=O)c2ccc3c(c2)NC(=O)c2ccccc2S3)CC1	0.08	9.2%	i
108	CC(C)(C)c1ccc(C(=O)Oc2ccc3c(c2)OCC3=O)cc1	nt	-2.3%	i
109	Clc1ccccc1OCc1nn2c(-c3ccncc3)nnc2s1	-0.42	-5.6%	i
110	CCOC(=O)/C(=C\Nc1ccccc1C(F)(F)F)Sc1ncc(C(F)(F)F)cc1Cl	nt	3.5%	i
